# Insulin prom inh – inhibitors of insulin promoter-driven GFP, primary screen, imaging, TRM-6 cells (human fetal islet line), eGFP reporter, cell count | actives 0.9% (n = 130,000) | inhibition, % at 2 µM | reporter expression induced with tamoxifen | AID 1273, 2008;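 active = inhibition above the mean plus 3 SD, with well images judged a real hit on visual review, cut at about 60% in these data, passing the limit was not always enough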
# PKD1 inh – inhibitors of human PKD1 kinase, biochemical, fluorescence polarization; actives 0.056% (n = 200,000); PKD1 kinase fluorescence polarization assay; inhibition, %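 (about 10 µM by stock and volumes)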; AID 797, 2007;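 active = inhibition of 50% or more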;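 also: controls were vehicle for no effect and a reference inhibitor for full effect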
# Target sequence (Q15139 whole entry, looked up): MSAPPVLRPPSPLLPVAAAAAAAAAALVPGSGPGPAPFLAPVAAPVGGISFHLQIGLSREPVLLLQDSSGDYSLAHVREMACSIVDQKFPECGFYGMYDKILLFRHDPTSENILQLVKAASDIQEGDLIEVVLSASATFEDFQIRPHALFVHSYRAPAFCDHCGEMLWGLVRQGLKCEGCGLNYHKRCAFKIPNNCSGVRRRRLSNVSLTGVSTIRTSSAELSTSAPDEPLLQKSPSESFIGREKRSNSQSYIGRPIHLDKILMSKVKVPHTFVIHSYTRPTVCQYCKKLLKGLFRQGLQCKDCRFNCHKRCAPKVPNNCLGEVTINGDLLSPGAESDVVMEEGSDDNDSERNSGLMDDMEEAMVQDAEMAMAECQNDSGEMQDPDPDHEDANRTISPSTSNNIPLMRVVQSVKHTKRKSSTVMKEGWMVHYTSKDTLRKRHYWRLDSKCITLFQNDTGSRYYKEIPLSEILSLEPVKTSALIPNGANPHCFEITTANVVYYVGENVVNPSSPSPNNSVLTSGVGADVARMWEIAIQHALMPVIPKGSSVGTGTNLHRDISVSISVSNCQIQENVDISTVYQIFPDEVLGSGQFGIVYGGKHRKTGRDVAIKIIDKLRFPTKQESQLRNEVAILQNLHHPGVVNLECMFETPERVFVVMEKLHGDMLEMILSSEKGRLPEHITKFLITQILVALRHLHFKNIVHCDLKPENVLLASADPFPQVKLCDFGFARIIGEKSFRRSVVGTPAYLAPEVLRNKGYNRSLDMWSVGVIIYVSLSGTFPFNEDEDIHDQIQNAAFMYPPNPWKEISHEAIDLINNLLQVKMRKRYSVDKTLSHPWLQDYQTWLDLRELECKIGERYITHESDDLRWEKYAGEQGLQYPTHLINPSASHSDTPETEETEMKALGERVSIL
# GALR2 agonist – GALR2 receptor agonists, primary screen, cell-based; actives 0.48% (n = 140,000); AID 803, 2007; GALR2-expressing cells, agonist activation read-out; Galanin receptor type 2 (Homo sapiens), O43603; activation, %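 (tested at 5 µM)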;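 active = above mean plus 3 SD of all compounds, about 5% in these data, not always enough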;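 also: 0% = vehicle buffer wells and 100% = reference agonist at full effect; tested in CHO reporter cells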
# RGS16-Gao HTS – modulators of RGS16 binding to Galphao, primary screen, biochemical, human proteins, multiplexed bead flow cytometry | Regulator of G-protein signaling 16 (Homo sapiens) + Guanine nucleotide-binding protein … | bead-based flow cytometry RGS16-Galphao binding, fluorescence; actives lie on both sides | binding response (% of control), % at 10 µM | actives 0.38% (n = 220,000) | AID 1441, 2008;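 active = below 25% or above 175%, edge rows of some plates excepted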;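 also: Galphao activated by GDP with aluminum fluoride before binding; 100% = wells without compound and 0% = beads without RGS; some results beyond the cut were filed as inactive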
# HSV augment – enhancers of HSV replication in host cells, fold increase, host cell viability | maximum fold increase | HSV replication augmentation in cells | AID 1956, 2009 | actives 0.005% (n = 220,000);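 active = peak rise of 1.5-fold or more in the series; tested in PC3 cells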;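 also: first round at 10 µM; read as green reporter fluorescence; hits show the peak of a series up to 25 µM; 1 = signal of infected wells without compound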
# Insulin prom inh cell count – second read-out of Insulin prom inh, no call of its own (marks repeat the call); normalized cell count, %; measured here: cell count, toxicity; reference of the scale not given here;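 cells exposed to compound for 48 h; stained nuclei by imaging scaled within each plate; lower means fewer cells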
# HSV augment primary fold – also measured in HSV augment; calls as there; fold increase; compound at 10 µM; measured here: primary screen fold increase 10 uM; tested in PC3 cells;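 GFP signal in the first replicate; 1 = infected wells without compound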
# * marks the source's active call; other numbers are inactive results; i = inactive; . = not tested or not shown.
SMILES,Insulin prom inh,Insulin prom inh cell count,PKD1 inh,GALR2 agonist,RGS16-Gao HTS,HSV augment,HSV augment primary fold
O=C(CSc1nnc(SCc2ccccc2)s1)N/N=C/C=C/c1ccccc1[N+](=O)[O-],.,.,-3,0.1,107,.,.
CCn1c(SCc2cccnc2)nnc1-c1c[nH]c2ccccc12,.,.,-6,-3.3,106,i,1
CCOc1ccc(NC(=O)CSc2nnc(-c3ccccn3)n2N)cc1,-42,103,-4,-1.1,101,i,0.72
COc1ccc(CC(=O)NCc2nnc(SCC(=O)c3ccc(OC)cc3)n2C)cc1,.,.,7,.,107,i,0.98
Cc1c(C(=O)N2CCOCC2)sc(NC(=O)c2ccc3c(c2)OCO3)c1C#N,57,92,1,0.7,107,i,0.87
COCCOC(=O)C1=C(C)NC(=O)NC1c1c(OC)ncnc1OC (centres undefined),13,82,6,-0.1,111,i,1
COC(=O)c1sc(-c2ccccc2)cc1NC(=O)C1CC1,20,149,-5,.,98,i,0.99
O=C1/C(=C/c2ccncc2)CCC/C1=C\c1ccncc1,.,.,-1,.,93,i,0.65
CCc1ccc(NC(=O)CSc2nc3cc(C(=O)OC)ccc3c(=O)n2CC2CCCO2)cc1 (centres undefined),13,57,-10,-1.4,115,i,0.85
Cc1nc(SC(C)C(=O)Nc2cccc(C(F)(F)F)c2)c2c(C)c(C(=O)O)sc2n1 (centres undefined),.,.,.,.,102,i,0.9
COc1cccc(-c2csc(N3CCN(C(=S)Nc4cccc(Cl)c4)CC3)n2)c1,.,.,-6,-1.5,112,i,0.76
CC(=O)Nc1ccc(OCC(O)Cn2ccnc2C)cc1 (centres undefined),10,60,4,.,103,i,1.1
Cc1ccc(S(=O)(=O)/C=C/c2ccccc2)cc1,-37,109,6,-0.5,102,i,0.93
O=c1[nH]c2ccc(S(=O)(=O)N3CCCCC3)cc2o1,-37,86,-7,0.5,96,i,0.96
CCn1c(SCC(=O)Nc2cc(C)on2)nnc1-c1ccc(S(=O)(=O)N2CCCC2)cc1,.,.,5,-0.6,98,i,0.95
CCOC(=O)N/N=C/c1ccccc1OCc1ccc(Cl)cc1,33,119,6,-1.1,103,i,0.99
CCOP(=O)(OCC)C(Nc1ccc(OC)cc1)c1ccco1 (centres undefined),43,141,-8,.,96,i,0.85
CCC(SC1=Nc2ccccc2C2=NC(CC(C)C)C(=O)N12)C(=O)Nc1ccc2c(c1)OCO2 (centres undefined),34,102,-11,1.5,90,i,0.92
CC1=C(C(=O)Nc2ccc(C)cn2)C(c2cnn(C)c2)C2=C(CCCC2=O)N1 (centres undefined),42,171,-1,0.3,101,i,0.98
CCCC(=O)Nc1sc(Cc2ccccc2)c(C)c1C(N)=O,.,.,-5,.,79,i,0.97
O=C(NC(=S)Nc1nc2c(s1)CCCC2)c1ccccc1,10,82,1,-2.2,94,i,1
O=C(NC1=NCCS1)c1ccc(Cl)c(S(=O)(=O)N2CCCCC2)c1,.,.,1,-2.0,105,i,0.65
COc1ccc2c(c1)C(c1cccs1)=NNC(c1cccnc1)=N2,-42,99,1,.,102,i,0.99
O=S(=O)(Nc1ncn[nH]1)c1ccc(Cl)cc1,0,79,-7,-1.1,100,.,.
O=C(Cc1ccc(NS(=O)(=O)c2ccc(F)cc2)cc1)NCc1ccccc1,-52,95,2,-0.9,105,i,0.96
# (continued)
SMILES,Insulin prom inh,Insulin prom inh cell count,PKD1 inh,GALR2 agonist,RGS16-Gao HTS,HSV augment,HSV augment primary fold
COc1cc2c(cc1[N+](=O)[O-])n(C(C)C)c(=O)n2C(C)C,-57,108,0,.,74,i,1
Cc1cc(Cl)nc(-c2ccccc2)n1,21,110,-3,.,110,i,1
O=C(NCC(c1cccs1)N1CCOCC1)c1ccccc1NS(=O)(=O)c1ccc(Br)cc1 (centres undefined),-57,36,-2,-1.3,81,i,0.89
O=C(c1ccc(Br)cc1)C1CCc2occc2C1=O (centres undefined),.,.,-17,-0.9,103,i,1.2
CCOC(=O)N1CCC(N2CCN(S(=O)(=O)CC)CC2)CC1,-65,90,93*,-1.2,137,i,1
O=C(Nc1ccccc1C(=O)N1CCCCC1)C1CCCCC1,.,.,-3,-0.9,99,i,1
Cn1nc(-c2ccccc2)c(/C=N/O)c1Cl,44,115,-8,.,96,i,0.91
Cc1cccc(Cn2cnc3c(nnn3Cc3ccccc3F)c2=O)c1,.,.,17,-4.2,132,i,1.1
Cc1ccc(NC(=O)C2CCN(S(=O)(=O)c3ccc(F)cc3)CC2)cc1,29,97,-6,-3.6,101,i,0.72
CCCCNC(=O)N1CCN(C/C=C/c2ccccc2)CC1,.,.,-1,.,101,i,0.98
CC(=O)NC1=NN(C(C)=O)C(C)(CCS(=O)(=O)c2ccc(Cl)c(Cl)c2)S1 (centres undefined),.,.,2,-1.7,99,.,.
COC(=O)CSc1nc(NC(C)C)nc(N(C)C)n1,54,103,1,.,106,.,.
COc1ccccc1C1NC(=O)NC(C)=C1C(C)=O (centres undefined),-22,97,-12,-1.8,104,i,1
Cc1ccnc(N2C(=O)c3cccc4c([N+](=O)[O-])ccc(c34)C2=O)c1,.,.,-11,2.5,100,.,.
O=C1c2ccccc2C(=O)N1CCN1CCOCC1,.,.,1,-2.2,120,i,1.2
CCOC(=O)N1CCN(C(=O)COc2cc(=O)n(CC)c3ccccc23)CC1,.,.,1,-1.9,104,i,0.83
O=S(=O)(c1ccccc1)N1CCN(C2CCCCCCC2)CC1,-44,69,0,-1.9,107,i,0.99
CC(C)(C)OC(=O)NCc1ccc(NC(=O)c2nc[nH]c2C(=O)N[C@@H](Cc2ccccc2)C(=O)OC(C)(C)C)cc1,.,.,.,.,100,i,0.75
Cc1ccc(S(=O)(=O)N[C@H](C(=O)N2CCC(C(=O)NCC(=O)O)CC2)C(C)C)cc1,24,87,-10,-0.3,92,i,0.97
COc1ccc(NC(=O)C2CC(=O)OC23CCOC(C)(C)C3)cc1 (centres undefined),-3,73,12,-1.9,179,i,1.1
O=C(c1ccco1)N1CCN(Cc2cccnc2)CC1,.,.,-1,-3.2,100,i,0.99
CCOCCCNC(=S)N1CCC(NC(=O)C2CCCCC2)CC1,.,.,-3,.,106,i,0.93
COC(=O)/C=C1\NCCNC1=O,.,.,.,.,104,i,0.97
CN(C)CCSc1nc(N)c2c3c(sc2n1)COC(C)(C)C3,5,61,-6,-0.1,101,i,0.77
CC(C)C(c1nnnn1Cc1ccccc1)N1CCC(C(N)=O)CC1 (centres undefined),.,.,-6,-1.8,104,i,0.92

# Shown as a hit in PKD1 inh (from the list above):
Structure	PKD1 inh	GALR2 agonist	RGS16-Gao HTS	HSV augment primary fold
CCOC(=O)N1CCC(N2CCN(S(=O)(=O)CC)CC2)CC1	93*	-1.2	137	1

# Next part
SMILES,Insulin prom inh,Insulin prom inh cell count,PKD1 inh,GALR2 agonist,RGS16-Gao HTS,HSV augment,HSV augment primary fold
O=C(CCCSc1nc2ccccc2[nH]1)Nc1nnc(C2CC2)s1,.,.,-6,.,106,i,0.63
COc1ccc(C2c3[nH]c4ccccc4c3CCN2C(=O)c2ccc(=O)n(C)n2)c(F)c1 (centres undefined),.,.,-5,.,110,i,0.99
Cc1cc(C(C)(C)C)oc1C(=O)N1CCN(C(=O)c2oc(C(C)(C)C)cc2C)CC1,31,106,-14,-0.6,95,i,0.87
Cc1cc(Nc2ccccc2N2CCOCC2)n2ncnc2n1,-3,70,-2,0.8,98,i,0.78
Cc1ccc2c(CC(=O)OC(C)C(=O)NCc3ccc4c(c3)OCO4)coc2c1 (centres undefined),-64,97,-22,-3.2,122,i,0.96
CN1CCN(c2nc3c(c(=O)[nH]c(=O)n3C)n2CCCSc2ncccn2)CC1,.,.,6,-1.4,103,i,0.87
CCOC(=O)C(=O)NC(C)c1ccccc1 (centres undefined),-13,65,0,.,109,i,1.1
N=c1n(CCCOc2ccccc2Cl)c2ccccc2n1CC(N)=O,.,.,.,.,98,i,0.74
O=[N+]([O-])c1ccc(CN2CCN(Cc3c[nH]c4ccccc34)CC2)cc1,.,.,0,.,103,i,1
Cc1cc(C)c2nc(-c3ccccn3)cc(C(=O)Nn3cnnc3)c2c1,.,.,-2,.,97,i,1
COc1ccc(-c2cc(C#N)nc(NN)n2)cc1,.,.,.,.,108,i,1.1
CC(C)Oc1ccc(C(=O)OC(C)C(=O)Nc2nc(-c3cccc([N+](=O)[O-])c3)cs2)cc1 (centres undefined),47,112,-4,-1.3,73,i,0.99
O=C(CN1CCN(S(=O)(=O)c2ccc(Br)cc2)CC1)Nc1ccc(F)cc1,-36,136,0,-1.2,107,i,0.96
Cc1ccccc1NC(=O)CSc1nc(N2CCCCC2)nc(N2CCCCC2)n1,.,.,6,-1.9,109,i,0.9
CCOc1ccc(CCNC(=O)COC(=O)c2cc(OC)c(OC)c(OC)c2)cc1OCC,.,.,-2,.,103,i,0.95
CCCN(CCC)CCNC(=O)C1c2ccccc2C(=O)N2CCc3ccccc3C12 (centres undefined),.,.,-6,.,102,i,0.91
CCn1c(NC(=O)c2cccs2)nc2ccccc21,-36,52,-9,-1.0,103,i,0.97
COc1cc2c(cc1OC)C(c1cc3cc4c(cc3[nH]c1=O)OCO4)N(C(=O)C(C)C)CC2 (centres undefined),-139,87,-2,-0.1,100,i,0.97
CCc1nc(-c2ccc(OC)c(OC)c2)cc2cc(OC)c(OC)cc12,-70,96,-9,0.6,105,i,0.97
CCC(C)[C@H](N)c1nnc(SCc2cccc(F)c2)o1 (some centres undefined),21,98,3,-3.2,95,i,1
N#Cc1c(NC(=O)c2ccccc2)sc2c1CCC2,29,61,-2,0.5,113,i,1
COc1cc(NC(=O)c2cc3sccc3n2C)cc(OC)c1,9,67,-6,-0.6,102,i,0.94
Cc1oc2c(C)c(O)ccc2c(=O)c1-c1ccc2ccccc2n1,-15,94,-7,-3.8,98,i,0.7
Cc1ccc(F)c([C@H]2[C@@H]3C=CCC[C@@]3(C)C(=O)N2Cc2ccccc2)c1,.,.,.,.,101,i,0.83
COc1ccccc1CNC(=O)CSc1nc2nc(C)cc(C)n2n1,6,129,2,-1.0,46,i,1
CCn1nnnc1SCCSc1nnnn1CC,-120,106,9,-1.7,106,i,1
CCc1nc2cc(Cl)c(Cl)cc2nc1CC,.,.,.,.,95,i,1
Cc1nn(Cc2ccccc2)c(C)c1NC(=O)Cn1nc([N+](=O)[O-])c(Cl)c1C,.,.,-10,-2.5,73,i,0.84
CC(OC(=O)c1cccs1)C(=O)NCc1cccs1 (centres undefined),-19,99,-6,-2.6,677,i,0.97
CCCCOC(=O)Nc1nnc(Cc2ccc(Cl)cc2)s1,.,.,-6,.,103,i,0.92

# In the list so far, 11 contain a thiophene ring, fused or not.
SMILES,Insulin prom inh,Insulin prom inh cell count,PKD1 inh,GALR2 agonist,RGS16-Gao HTS,HSV augment,HSV augment primary fold
Cc1c(C(=O)N2CCOCC2)sc(NC(=O)c2ccc3c(c2)OCO3)c1C#N,57,92,1,0.7,107,i,0.87
COC(=O)c1sc(-c2ccccc2)cc1NC(=O)C1CC1,20,149,-5,.,98,i,0.99
Cc1nc(SC(C)C(=O)Nc2cccc(C(F)(F)F)c2)c2c(C)c(C(=O)O)sc2n1 (centres undefined),.,.,.,.,102,i,0.9
CCCC(=O)Nc1sc(Cc2ccccc2)c(C)c1C(N)=O,.,.,-5,.,79,i,0.97
COc1ccc2c(c1)C(c1cccs1)=NNC(c1cccnc1)=N2,-42,99,1,.,102,i,0.99
O=C(NCC(c1cccs1)N1CCOCC1)c1ccccc1NS(=O)(=O)c1ccc(Br)cc1 (centres undefined),-57,36,-2,-1.3,81,i,0.89
CN(C)CCSc1nc(N)c2c3c(sc2n1)COC(C)(C)C3,5,61,-6,-0.1,101,i,0.77
CCn1c(NC(=O)c2cccs2)nc2ccccc21,-36,52,-9,-1.0,103,i,0.97
N#Cc1c(NC(=O)c2ccccc2)sc2c1CCC2,29,61,-2,0.5,113,i,1
COc1cc(NC(=O)c2cc3sccc3n2C)cc(OC)c1,9,67,-6,-0.6,102,i,0.94
CC(OC(=O)c1cccs1)C(=O)NCc1cccs1 (centres undefined),-19,99,-6,-2.6,677,i,0.97

# Screening data (PubChem)
